A1 apoptosis 2: A1 inhibition read as caspase activation. caspase activation, % (concentration not given with the values). AID 2465. MEF A1-2A-BIM cells, caspase-Glo luminescence, 3 h; percent of clofoctol response, DMSO zero. 24,000 tested, under 10 active; in the data active = caspase activation above about 5.9%;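 note: wells of about 30 µL received 50 nL stock; the first replicate is given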
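system = A1-2A-BIM-expressing MEF cells | quantity = 2500 MEF cells/well | dosing = 50 nL compound per well, pinned | schedule = overnight cell settling, then 3 h compound exposure, 37 °C | signal = luminescence from DEVD-luciferin Caspase-Glo reagent, 1:1 in 50 mM HEPES, 1 h RT | read-out = Caspase-3/7 activation, seen as rise in luminescence signal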
* hit, by the source's call. This is a subset (hit frequency here may not be typical).

SMILES | A1 apoptosis 2
C[C@H]1CN([C@@H](C)CO)C(=O)Cc2cc(NC(=O)c3ccncc3)ccc2O[C@@H]1CN(C)C(=O)Nc1ccc(F)cc1 | 0.0
C[C@H]1CN([C@@H](C)CO)C(=O)c2cc(N(C)C)ccc2O[C@H]1CN(C)Cc1ccc2c(c1)OCO2 | -0.7
COc1ccc(CN(C)C[C@H]2Oc3c(NS(=O)(=O)c4ccccc4)cccc3C(=O)N([C@H](C)CO)C[C@H]2C)cc1 | -1.1
COc1ccc(NC(=O)N(C)C[C@H]2OCCCC[C@H](C)Oc3ccc(NS(=O)(=O)c4ccc(Cl)cc4)cc3C(=O)N([C@H](C)CO)C[C@@H]2C)cc1 | -0.5
COc1ccc(NC(=O)N(C)C[C@H]2Oc3c(NS(=O)(=O)c4cn(C)cn4)cccc3C(=O)N([C@H](C)CO)C[C@@H]2C)cc1 | 0.6
O=C(NC1CC1)C1=C[C@@H](c2coc3ccccc3c2=O)C[C@@H](OCCCCO)O1 | 0.8
COc1ccc(S(=O)(=O)Nc2ccc3c(c2)C(=O)N([C@@H](C)CO)C[C@H](C)[C@@H](CN(C)S(=O)(=O)c2ccc(Cl)cc2)O3)cc1 | 0.7
Cc1ccc(S(=O)(=O)Nc2ccc3c(c2)CC(=O)N([C@@H](C)CO)C[C@H](C)[C@@H](CN(C)C(=O)NC2CCCCC2)O3)cc1 | 0.8

Some of the entries so far, field by field.
SMILES: O=C(NC1CC1)C1=C[C@@H](c2coc3ccccc3c2=O)C[C@@H](OCCCCO)O1
  A1 apoptosis 2: 0.8
SMILES: C[C@H]1CN([C@@H](C)CO)C(=O)c2cc(N(C)C)ccc2O[C@H]1CN(C)Cc1ccc2c(c1)OCO2
  A1 apoptosis 2: -0.7
SMILES: COc1ccc(NC(=O)N(C)C[C@H]2OCCCC[C@H](C)Oc3ccc(NS(=O)(=O)c4ccc(Cl)cc4)cc3C(=O)N([C@H](C)CO)C[C@@H]2C)cc1
  A1 apoptosis 2: -0.5

Later entries.
SMILES | A1 apoptosis 2
Cc1ccc(S(=O)(=O)N(C)C[C@H]2Oc3c(NC(=O)c4ccc(-c5nccs5)cc4)cccc3C(=O)N([C@H](C)CO)C[C@H]2C)cc1 | -0.9
Cc1noc(C)c1S(=O)(=O)Nc1ccc2c(c1)C(=O)N([C@H](C)CO)C[C@H](C)[C@H](CN(C)C)OCCCC[C@@H](C)O2 | 0.6
O=C1c2ccccc2C(=O)N1C[C@@H]1CCCN(Cc2ccc(OCCO)cc2)C1 | -0.6
C[C@@H]1CN([C@H](C)CO)C(=O)c2cccc(NS(=O)(=O)c3ccc(Cl)cc3)c2O[C@H]1CN(C)Cc1ccc(Oc2ccccc2)cc1 | -0.9
Cc1noc(C)c1S(=O)(=O)Nc1ccc2c(c1)C(=O)N([C@H](C)CO)C[C@H](C)[C@H](CN(C)C(=O)c1ccncc1)OCCCC[C@@H](C)O2 | 0.1
C[C@H]1CN([C@@H](C)CO)C(=O)c2cc(NC(=O)Nc3ccccc3)ccc2O[C@H]1CN(C)S(C)(=O)=O | 0.3
C[C@@H]1CN([C@@H](C)CO)C(=O)CCCn2nncc2CO[C@H]1CN(C)Cc1ccncc1 | 0.3
C#CCN([C@H](/C=C/C1CC1)[C@@H](O)Cc1ccccc1)[C@@H](Cc1ccc(N=[N+]=[N-])cc1)C(=O)OC | -0.1
Cc1ccc(S(=O)(=O)Nc2ccc3c(c2)C(=O)N([C@H](C)CO)C[C@@H](C)[C@@H](CN(C)S(=O)(=O)c2ccccc2)O3)cc1 | -0.9
C[C@@H]1CN([C@@H](C)CO)C(=O)CCCn2cc(nn2)CO[C@@H]1CN(C)C(=O)c1ccncc1 | 0.6
C[C@@H]1CN([C@@H](C)CO)C(=O)c2cc(NC(=O)Nc3ccccc3)ccc2O[C@H]1CN(C)C(=O)Nc1ccc(C(F)(F)F)cc1 | 0.4
COc1ccc(S(=O)(=O)Nc2ccc3c(c2)C(=O)N([C@@H](C)CO)C[C@H](C)[C@H](CN(C)C(=O)Nc2cccc4ccccc24)OCCCC[C@@H](C)O3)cc1 | 1.5
CNC[C@H]1Oc2c(NC(=O)c3cc(C)nn3C)cccc2C(=O)N([C@H](C)CO)C[C@@H]1C | -0.1
COc1ccc(S(=O)(=O)Nc2ccc3c(c2)CC(=O)N([C@@H](C)CO)C[C@H](C)[C@@H](CN(C)S(=O)(=O)c2cn(C)cn2)O3)cc1 | 0.7
CNC[C@H]1OCCCC[C@H](C)Oc2ccc(NS(=O)(=O)c3ccccc3)cc2C(=O)N([C@H](C)CO)C[C@@H]1C | -0.2
C[C@H](CO)N1C[C@H](C)[C@H](CN(C)C(=O)Nc2ccc(C(F)(F)F)cc2)Oc2ccc(NS(=O)(=O)c3ccc(Cl)cc3)cc2C1=O | -0.3
C[C@@H]1CN([C@H](C)CO)C(=O)c2cccc(NS(=O)(=O)c3ccccc3)c2O[C@H]1CN(C)Cc1ccc(Oc2ccccc2)cc1 | -1.1
Cc1noc(C)c1NC(=O)Nc1cccc2c1O[C@H](CN(C)S(=O)(=O)c1ccc(Cl)cc1)[C@H](C)CN([C@@H](C)CO)C2=O | -0.8
C[C@@H]1CN([C@H](C)CO)C(=O)c2cccc(NC(=O)Nc3ccc(C(F)(F)F)cc3)c2O[C@@H]1CN(C)Cc1ccc(C(F)(F)F)cc1 | -0.8
COc1ccc(NC(=O)N(C)C[C@@H]2Oc3c(NC(=O)Nc4ccc(F)cc4)cccc3C(=O)N([C@H](C)CO)C[C@H]2C)cc1 | 0.3
C[C@@H]1CCCCO[C@H](CN(C)S(C)(=O)=O)[C@@H](C)CN([C@H](C)CO)C(=O)c2cc(NS(=O)(=O)c3cccs3)ccc2O1 | -0.6
C[C@H]1CN([C@@H](C)CO)C(=O)c2cc(NC(=O)c3ccncc3)ccc2O[C@H]1CN(C)C(=O)Nc1ccc(F)cc1 | 1.2
C[C@@H]1CN([C@@H](C)CO)C(=O)c2cccc(NS(C)(=O)=O)c2O[C@H]1CN(C)C | -0.4
Cc1cc(C(=O)Nc2cccc3c2O[C@@H](CN(C)S(C)(=O)=O)[C@@H](C)CN([C@H](C)CO)C3=O)n(C)n1 | -1.6
COc1ccc(S(=O)(=O)N(C)C[C@H]2Oc3ccc(NC(=O)C4CCCCC4)cc3CC(=O)N([C@H](C)CO)C[C@H]2C)cc1 | 1.4
C[C@H](CO)N1C[C@H](C)[C@@H](CN(C)Cc2ccc(C(=O)O)cc2)Oc2ccc(NS(=O)(=O)c3ccc(F)cc3)cc2C1=O | -1.2
C[C@H](CO)N1C[C@H](C)[C@H](CN(C)C(=O)Nc2ccc(F)cc2)Oc2ccc(NC(=O)Nc3ccc(F)cc3)cc2CC1=O | 2.4
C[C@@H]1CCCCO[C@@H](CN(C)C(=O)Nc2ccc(F)cc2)[C@@H](C)CN([C@@H](C)CO)C(=O)c2cc(NC(=O)Cc3ccccc3)ccc2O1 | -1.6
C[C@@H]1CCCCO[C@H](CN(C)C(=O)NC2CCCCC2)[C@@H](C)CN([C@H](C)CO)C(=O)c2cc(NC(=O)Nc3ccccc3)ccc2O1 | 0.1
C[C@H](CO)N1C[C@H](C)[C@@H](CN(C)Cc2ccc(Oc3ccccc3)cc2)Oc2ccc(NC(=O)C3CC3)cc2CC1=O | 0.0
COc1ccc(NC(=O)N(C)C[C@H]2Oc3ccc(N(C)C)cc3CC(=O)N([C@H](C)CO)C[C@H]2C)cc1 | -0.7
Cc1ccc(S(=O)(=O)Nc2ccc3c(c2)CC(=O)N([C@@H](C)CO)C[C@H](C)[C@@H](CN(C)Cc2ccc(C(=O)O)cc2)O3)cc1 | 1.7
Cc1noc(C)c1NC(=O)Nc1ccc2c(c1)C(=O)N([C@@H](C)CO)C[C@H](C)[C@H](CN(C)C(=O)C1CCCCC1)OCCCC[C@H](C)O2 | 0.1
C[C@H]1CN([C@@H](C)CO)C(=O)Cc2cc(NC(=O)Nc3ccc4c(c3)OCO4)ccc2O[C@H]1CN(C)C(=O)Nc1ccc2c(c1)OCO2 | -0.7
CC(C)NC(=O)Nc1ccc2c(c1)C(=O)N([C@H](C)CO)C[C@@H](C)[C@H](CN(C)S(=O)(=O)c1cccs1)OCCCC[C@@H](C)O2 | 0.3
C[C@H](CO)N1C[C@H](C)[C@@H](CN(C)C(=O)C2CCCCC2)OCCCC[C@H](C)Oc2ccc(NS(=O)(=O)c3cccs3)cc2C1=O | 1.3
COc1ccc(CN(C)C[C@@H]2Oc3c(NC(=O)c4nc5ccccc5s4)cccc3C(=O)N([C@H](C)CO)C[C@H]2C)cc1 | -1.2
C[C@@H]1CCCCO[C@H](CN(C)Cc2ccncc2)[C@H](C)CN([C@@H](C)CO)C(=O)c2cc(NC(=O)Cc3ccccc3)ccc2O1 | -1.4
O=C(NC1CC1)C1=C[C@@H](C2CC2)C[C@@H](OCc2ccc(CO)cc2)O1 | 0.6
C[C@H](CO)N1C[C@H](C)[C@H](CN(C)C(=O)Nc2ccccc2)Oc2c(NC(=O)c3cnccn3)cccc2C1=O | 0.4
CNC[C@H]1OCCCC[C@@H](C)Oc2ccc(NC(=O)Nc3cccc4ccccc34)cc2C(=O)N([C@@H](C)CO)C[C@@H]1C | -0.6
C[C@H]1CN([C@@H](C)CO)C(=O)c2cc(NC(=O)Nc3cccc4ccccc34)ccc2O[C@H]1CN(C)Cc1ccc(C(=O)Nc2ccccc2N)cc1 | 0.2
C[C@@H]1CN([C@@H](C)CO)C(=O)c2cc(NC(=O)Nc3ccccc3)ccc2O[C@H]1CN(C)Cc1ccc(C(=O)O)cc1 | 0.3
C[C@@H]1CN([C@@H](C)CO)C(=O)c2cc(NS(=O)(=O)c3cccs3)ccc2O[C@@H](C)CCCCO[C@H]1CN(C)S(=O)(=O)c1ccccc1 | -0.6
C[C@H]1CN([C@@H](C)CO)C(=O)c2cccc(NC(=O)Nc3cccc4ccccc34)c2O[C@@H]1CN(C)S(=O)(=O)c1ccccc1 | -1.3
COc1ccccc1CN(C)C[C@@H]1OCc2cn(nn2)CCCC(=O)N([C@H](C)CO)C[C@@H]1C | 1.1
C[C@@H]1CN([C@@H](C)CO)C(=O)CCCn2cc(nn2)CO[C@@H]1CN(C)C | -0.2
Cc1ccc(S(=O)(=O)Nc2ccc3c(c2)C(=O)N([C@H](C)CO)C[C@H](C)[C@H](CN(C)C)OCCCC[C@H](C)O3)cc1 | 0.3
COc1ccc(NC(=O)Nc2cccc3c2O[C@@H](CN(C)Cc2ccc(Oc4ccccc4)cc2)[C@H](C)CN([C@H](C)CO)C3=O)cc1 | 0.1
Cc1noc(C)c1NC(=O)N(C)C[C@@H]1Oc2ccc(NC(=O)Nc3ccc4c(c3)OCO4)cc2C(=O)N([C@H](C)CO)C[C@@H]1C | 0.4
COc1ccc(NC(=O)N(C)C[C@@H]2Oc3ccc(N(C)C)cc3CC(=O)N([C@@H](C)CO)C[C@H]2C)cc1 | 0.1
C[C@@H]1CN([C@H](C)CO)C(=O)Cc2cc(NC(=O)Cc3ccccc3)ccc2O[C@@H]1CN(C)Cc1ccc(Cl)c(Cl)c1 | -0.6
CC(C)NC(=O)N(C)C[C@H]1OCCCC[C@H](C)Oc2ccc(NS(=O)(=O)c3cccs3)cc2C(=O)N([C@@H](C)CO)C[C@H]1C | 1.3
C[C@@H]1CCCCO[C@@H](CN(C)C(=O)CCCN(C)C)[C@H](C)CN([C@@H](C)CO)C(=O)c2cc(NS(=O)(=O)c3cccs3)ccc2O1 | -0.3
C[C@H]1CN([C@@H](C)CO)C(=O)c2cccc(NS(=O)(=O)c3ccc(Cl)cc3)c2O[C@@H]1CN(C)S(=O)(=O)c1ccc(F)cc1 | 1.1
C[C@@H]1CN([C@H](C)CO)C(=O)c2cc(NC(=O)Nc3ccc4c(c3)OCO4)ccc2O[C@@H](C)CCCCO[C@@H]1CN(C)Cc1ccccc1 | -1.6

(list continues)
SMILES | A1 apoptosis 2
Cc1ccc(S(=O)(=O)Nc2ccc3c(c2)C(=O)N([C@@H](C)CO)C[C@H](C)[C@@H](CN(C)C(=O)Nc2ccccc2)OCCCC[C@@H](C)O3)cc1 | -0.6
C[C@H]1CN([C@@H](C)CO)C(=O)Cc2cc(NC(=O)Nc3ccc(F)cc3)ccc2O[C@H]1CN(C)Cc1ccncc1 | 0.4
C#CCNC(=O)C1=C[C@H](C)[C@@H](CCCO)[C@H](OCC)O1 | 0.5
C[C@@H]1CCCCO[C@@H](CN(C)C(=O)Nc2cccc3ccccc23)[C@@H](C)CN([C@H](C)CO)C(=O)c2cc(N(C)C)ccc2O1 | -0.9
C[C@@H]1CN([C@H](C)CO)C(=O)c2cc(NC(=O)Cc3ccccc3)ccc2O[C@@H](C)CCCCO[C@@H]1CN(C)Cc1ccc(C(=O)O)cc1 | 0.3
Cc1noc(C)c1S(=O)(=O)N(C)C[C@H]1Oc2ccc(NC(=O)CCCN(C)C)cc2CC(=O)N([C@H](C)CO)C[C@@H]1C | 0.4
C[C@@H]1CCCCO[C@@H](CN(C)Cc2ccccc2)[C@H](C)CN([C@@H](C)CO)C(=O)c2cc(NS(=O)(=O)c3cn(C)cn3)ccc2O1 | 0.4

Given with each value named: part of the list above.
C#CCNC(=O)C1=C[C@H](C)[C@@H](CCCO)[C@H](OCC)O1
  A1 apoptosis 2: 0.5

Cc1ccc(S(=O)(=O)Nc2ccc3c(c2)C(=O)N([C@@H](C)CO)C[C@H](C)[C@@H](CN(C)C(=O)Nc2ccccc2)OCCCC[C@@H](C)O3)cc1
  A1 apoptosis 2: -0.6

Screens: PubChem, Broad Institute
